High-throughput results: PubChem BioAssay, National Center for Advancing Translational Sciences (NCATS)
VDR inh: blocks the human vitamin D receptor; P11473; VDR-SRC2-3 peptide fluorescence polarization, 2 h; Potency, µM, for inactives: max response, negative = inhibition, hits mostly inhibitors; 0.93% of 400,000 active; AID 504847; active = well fitted inhibition curve with a large enough effect; inconclusive = small, poorly fitted or top-dose-only effect, or another doubt; inactive = no such curve, though single readings can be large or run the other way; also: series mostly up to about 120 µM
Target sequence (P11473 whole entry, looked up): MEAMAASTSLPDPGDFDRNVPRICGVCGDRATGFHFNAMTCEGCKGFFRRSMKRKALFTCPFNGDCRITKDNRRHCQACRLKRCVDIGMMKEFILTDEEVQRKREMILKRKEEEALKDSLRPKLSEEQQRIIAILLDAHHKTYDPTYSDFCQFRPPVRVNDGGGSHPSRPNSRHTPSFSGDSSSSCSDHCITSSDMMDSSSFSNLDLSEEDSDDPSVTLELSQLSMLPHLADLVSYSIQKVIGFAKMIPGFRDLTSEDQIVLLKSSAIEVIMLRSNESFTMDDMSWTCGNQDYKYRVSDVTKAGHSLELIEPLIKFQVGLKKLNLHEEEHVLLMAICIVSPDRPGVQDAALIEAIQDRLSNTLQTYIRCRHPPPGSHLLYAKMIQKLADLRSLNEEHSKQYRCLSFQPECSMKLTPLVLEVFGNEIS
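FP read-out; VDR + SRC2-3 coactivator peptide; 23 nl compound by pintool; 2 h RT incubation; reagents held at 4 deg C, protected from light.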
Active calls of the source: *; & = joins results of further samples. % is scaled to controls: 0 for no effect and ±100 for the full control effect; potency is read from the fitted curve at half-maximal effect. Only part of the results is shown, so the mix of outcomes need not match the whole.

`CCCCN(C(=O)c1ccc([N+](=O)[O-])o1)c1c(N)n(CC(C)C)c(=O)[nH]c1=O` gave VDR inh -10%.
`COc1cccc(C(C)NC(=O)C2CCCO2)c1` (stereo not drawn) gave VDR inh 0%.
CCc1ccc(-c2cnc3ccccc3n2)cc1NC(=O)CNC(=O)c1ccccc1 was read as VDR inh 3%.
`CCCn1c(N)c(C(=O)CN2CCN(S(=O)(=O)c3cccc(Cl)c3)CC2)c(=O)[nH]c1=O` gave VDR inh 11%.
Cc1ccc(C(C(=O)NCC2CCCO2)N(Cc2ccccc2)C(=O)c2ccc(-c3ccccc3)[nH]2)o1 (stereo not drawn) was read as VDR inh -15%.
For OCC(CBr)(CBr)CBr the results were VDR inh 8%.
For O=C(COc1cccc(Br)c1)N/N=C/C(=O)c1ccccc1 the results were VDR inh 2%.
For Cc1ccc(S(=O)(=O)c2nnn3c2nc(N2CCN(c4ccc(F)cc4)CC2)c2cc(Cl)ccc23)cc1C the results were VDR inh -16%.
Screening CCc1ccccc1N(CC(=O)NC1CCCCC1)C(=O)CCC(=O)Nc1ccccn1 returned VDR inh 8%.
For CC(/C=N/NC(=O)c1cc(-c2ccc(C)o2)[nH]n1)=C\c1ccccc1 the results were VDR inh -4%.
For O=C1CN(S(=O)(=O)c2cc(Br)ccc2Br)CCN1 the results were VDR inh 17%.
For Cc1nc2ccccc2cc1C(=O)N(C)Cc1ccccc1 the results were VDR inh 11%.
Screening CC1(c2ccccc2)NC(=O)N(CC(=O)Nc2cc(S(=O)(=O)N3CCOCC3)ccc2Cl)C1=O (stereo not drawn) returned VDR inh 5%.
O=S(=O)(Nc1nc2c(s1)CCCC2)c1ccc(F)cc1 was read as VDR inh 2%.
For Cc1cc(C)n(C(C)CC(=O)N2CCc3ccccc32)n1 (stereo not drawn) the results were VDR inh -1%.
`CCOC(=O)C1CCCN(C(=O)c2ccc3nc(-c4cccc(OC)c4)oc3c2)C1` (stereo not drawn) gave VDR inh -17%.
Screening O=C(Nc1ccccc1)N1N=CCC1c1ccccc1 (stereo not drawn) returned VDR inh -2%.
For O=C(CCc1cn2ccccc2n1)NC1CCCc2c1cnn2-c1ccccc1F (stereo not drawn) the results were VDR inh 4%.
Screening CCN(C(=O)c1cc2ccccc2oc1=O)c1ccccc1 returned VDR inh -1%.
`Cc1nn(Cc2cccc(Oc3ccccc3)c2)c(C)c1NC(=O)NC12CC3CC(CC(C3)C1)C2` gave VDR inh -9%.

Retrieved by compound from the list above (2):
For O=C(CCc1cn2ccccc2n1)NC1CCCc2c1cnn2-c1ccccc1F (stereo not drawn) the results were VDR inh 4%.
`CCOC(=O)C1CCCN(C(=O)c2ccc3nc(-c4cccc(OC)c4)oc3c2)C1` (stereo not drawn) gave VDR inh -17%.

The list continues.
`CNc1cc(N2CCN(S(=O)(=O)N(C)C)CC2)ccc1[N+](=O)[O-]` gave VDR inh 15%.
`COc1ccc(-c2cc(-c3ccc(Cl)cc3)c(C#N)c(SCC(=O)O)n2)cc1` gave VDR inh -15%.
Screening CCOC(=O)c1c(-c2ccc(-c3ccccc3)cc2)csc1NC(=O)CNCCN(C)C returned VDR inh 3%.
Screening O=C(c1ccc(F)cc1)N1CCC(c2nc(-c3ccc(S(=O)(=O)N4CCCC4)cc3)no2)CC1 returned VDR inh 8%.
For CCOC(=O)c1cnc2cc(F)c(F)cc2c1N1CCOCC1 the results were VDR inh 8%.
`CCOC(=O)NN1C(=O)c2ccccc2NC1c1cccc(O)c1` (stereo not drawn) gave VDR inh 8%.
`O=C(CCn1[nH]c(=O)c2ccccc2c1=O)N1CCOCC1` gave VDR inh -5%.
Screening CCOC(=O)N1CCC(N(C(=O)Nc2cccc(OC)c2)C(C)CC)CC1 (stereo not drawn) returned VDR inh 8%.
`O=C(CCN1C(=O)c2ccccc2C1=O)NC(=S)Nc1ccccc1Cl` gave VDR inh 6%.
Screening COc1ccc(CC2SC(N)=NC2=O)cc1 (stereo not drawn) returned VDR inh 4%.
CCCCCCCCCCCCCCCC(N)=O was read as VDR inh -1%.
For Cc1ccccc1-n1c(N)cc(=O)[nH]c1=S the results were VDR inh -2%.
For COCc1cc(C)nc(SCC(=O)NCC2CCCO2)c1C#N (stereo not drawn) the results were VDR inh 14%.
CCOc1ccc(-c2cn(-c3ccc(OC)cc3)c(SC)n2)cc1 was read as VDR inh 10%.
Cc1ccc(-c2nnn(CC(=O)N(CC(=O)NC(C)C)c3cnc4ccccc4c3)n2)o1 was read as VDR inh -5%.
`Cc1nc2c([nH]c3ccccc32)c(=O)n1N` gave VDR inh 2%.
For O=c1cc(-c2cccnc2)oc2c1ccc1ccccc12 the results were VDR inh 7%.
Screening Cc1cccc(C)c1NC(=S)N1CCOCC1 returned VDR inh -4%.
`CN(C(=O)c1ccc2c(c1)N(Cc1ccc(F)cc1)C(=O)c1ccccc1S2(=O)=O)C1CCCCC1` gave VDR inh -7%.
`COc1ccc(S(=O)(=O)CCC(=O)Nc2cc(C)ccc2OC)cc1` gave VDR inh -14%.
CCN1/C(=C(\O)c2ccccc2)C(=O)c2ccccc2S1(=O)=O was read as VDR inh 2%.
CCc1ccc(OCC(=O)Nc2ccc(S(=O)(=O)Nc3ccccn3)cc2)cc1 was read as VDR inh -3%.
Screening COc1ccc(-c2cc(C(F)(F)F)nc(SCC(=O)NCc3ccc(Cl)cc3)n2)cc1 returned VDR inh -21%.
For CC1CC(C)CN(C(=O)c2cc3c(=O)n4ccccc4nc3s2)C1 (stereo not drawn) the results were VDR inh 0%.
For CCc1ccccc1NC(=O)CCNS(=O)(=O)c1cc(Br)cnc1N the results were VDR inh -3%.
For COc1c(C)cc(C(=O)C2CCCN(Cc3ccc(Oc4ncccn4)cc3)C2)cc1C (stereo not drawn) the results were VDR inh -6%.
O=C(CNS(=O)(=O)c1ccc(Br)s1)N1CCN(c2ccc(F)cc2)CC1 was read as VDR inh 9%&-4%.
For Cc1ccc2nc(-c3cccc(S(=O)(=O)N4CC(C)OC(C)C4)c3)cn2c1 (stereo not drawn) the results were VDR inh -29%.
Screening Cc1ccc(SCCNC(=S)Nc2cc(C)ccc2C)cc1 returned VDR inh -5%.
Screening CN1CCN(c2cc(=O)n(Cc3ccc(F)cc3)c(=O)[nH]2)CC1 returned VDR inh -5%.
COc1cccc(OC)c1C(=O)OCC(=O)N(c1ccccc1)C1CCCCC1 was read as VDR inh 14%.
Screening COc1cccc(N(CC(=O)NCCN2CCOCC2)S(=O)(=O)c2ccccc2)c1 returned VDR inh -7%.
Screening O=C(NCc1nc(-c2ccccc2)no1)c1ccc(Br)o1 returned VDR inh 3%.
For COc1ccc(/C=N/NC(=O)c2nnn(-c3nonc3N)c2-c2cccs2)c(OC)c1 the results were VDR inh -19%.
COc1ccccc1C(=O)NC1CCSc2ccccc21 (stereo not drawn) was read as VDR inh 23%.
For CC(=O)Nc1ccc(NC(=O)C(C)OC(=O)c2c(NC(C)=O)sc(C)c2C)cc1 (stereo not drawn) the results were VDR inh 19%.
For Cc1ccc(-c2nnc(OCCN3CCOCC3)c3ccccc23)cc1 the results were VDR inh -10%.
For CSc1ccc(CN2CCC(Cc3ccccc3)CC2)cc1 the results were VDR inh 2%.
Screening Cn1c(=O)c2c(SCC(=O)Nc3ccccc3F)nc(C3CC3)nc2n(C)c1=O returned VDR inh -9%.
`COc1ccc(C2CC(c3cccs3)=NN2C(=O)CSc2nc3ccccc3s2)cc1` (stereo not drawn) gave VDR inh -3%.

Molecules from the list above with an NH in an aromatic ring, in the order listed:
`CCCCN(C(=O)c1ccc([N+](=O)[O-])o1)c1c(N)n(CC(C)C)c(=O)[nH]c1=O` gave VDR inh -10%.
`CCCn1c(N)c(C(=O)CN2CCN(S(=O)(=O)c3cccc(Cl)c3)CC2)c(=O)[nH]c1=O` gave VDR inh 11%.
Cc1ccc(C(C(=O)NCC2CCCO2)N(Cc2ccccc2)C(=O)c2ccc(-c3ccccc3)[nH]2)o1 (stereo not drawn) was read as VDR inh -15%.
For CC(/C=N/NC(=O)c1cc(-c2ccc(C)o2)[nH]n1)=C\c1ccccc1 the results were VDR inh -4%.
`O=C(CCn1[nH]c(=O)c2ccccc2c1=O)N1CCOCC1` gave VDR inh -5%.
For Cc1ccccc1-n1c(N)cc(=O)[nH]c1=S the results were VDR inh -2%.
`Cc1nc2c([nH]c3ccccc32)c(=O)n1N` gave VDR inh 2%.
Screening CN1CCN(c2cc(=O)n(Cc3ccc(F)cc3)c(=O)[nH]2)CC1 returned VDR inh -5%.

Next section.
For Clc1ccc(NCc2nnc3n2CCCCC3)cc1 the results were VDR inh -11%.
For COc1ccc(C(=O)COC(=O)c2ccccc2C(=O)N(C)c2ccccc2)c(OC)c1 the results were VDR inh -24%.
`CC(=O)Nc1cccc(NC(=O)CSc2n[nH]c(-c3ccccc3)n2)c1` gave VDR inh -24%.
For COc1ccc2oc(=O)c(C(=O)n3ccc(C)n3)cc2c1 the results were VDR inh -15%.
NC(=O)c1nsc(C(=O)N(CC(=O)NC2CCCCC2)Cc2ccc3c(c2)OCO3)c1N was read as VDR inh 5%.
`COC(=O)c1cc(=O)n(Cc2ccc(OC)c(OC)c2)c(=Nc2ccc(F)cc2)s1` gave VDR inh -23%.
For CC1CCCN(S(=O)(=O)c2ccc(NC(=O)C3CC(=O)N(c4ccccc4)C3)cc2)C1 (stereo not drawn) the results were VDR inh -20%.
CCOC(=O)C1(Cc2ccc(OC)cc2)CCN(C(=O)C2CC(=O)N(C3CC3)C2)CC1 (stereo not drawn) was read as VDR inh -6%.
Screening Cc1c(NC(=O)CN(c2ccccc2)S(=O)(=O)c2ccc(F)cc2)c(=O)n(-c2ccccc2)n1C returned VDR inh -5%.
For CCOc1ncccc1C(=O)N1CCN(C(=O)c2ccccc2)CC1 the results were VDR inh 0%.
`CSc1ccc(C(=O)C2CCCN(C(=O)c3csc(C(C)=O)c3)C2)cc1` (stereo not drawn) gave VDR inh -23%.
Screening COc1cc(OC)cc(-c2cc3nc(C)c(CCC(=O)Nc4ccc(F)c(Cl)c4)c(C)n3n2)c1 returned VDR inh -10%.
Screening CCOc1ccc(NS(=O)(=O)c2ccc(C(=O)N(CC)CC(=O)NCc3cccs3)cc2)cc1 returned VDR inh 21%.
`CCCCNc1ncnc2c1cnn2-c1ccccc1` gave VDR inh 2%.
`COc1cccc2c1OC1(C)CC2NC(=O)N1c1cccc(C(=O)Nc2ccc3c(c2)OCCO3)c1` (stereo not drawn) gave VDR inh 5%.
`Cc1ccc(S(=O)(=O)NC(=O)NCc2ccc(F)cc2)cc1` gave VDR inh 20%.
For CC(C)COP(=O)(OCC(C)C)C(O)c1ccc(F)cc1 (stereo not drawn) the results were VDR inh 3%.
Screening CCOC(=O)c1oc2cc(OCC(=O)OC)ccc2c(=O)c1-c1ccc(OC)c(OC)c1 returned VDR inh -9%.
`COc1cccc(-c2sc3ccc(OC)cc3c2-c2ccc(OC)cc2F)c1` gave VDR inh -28%.
`CCn1c(CNC(=O)COc2c(C)cccc2C)nnc1SCC(=O)Nc1nccs1` gave VDR inh -1%.
`COc1ccccc1C1=CC(=O)CC(C)(C)C1=O` gave VDR inh 0%.
O=C(NCC1CCCO1)C(=O)N/N=C/c1ccccc1C(=O)O (stereo not drawn) was read as VDR inh -10%.
For C=C1[C@@H](OC(C)=O)CC[C@]2(C)[C@@H]1C[C@@H]1C[C@H](OC(C)=O)C(C)=C([C@@H](OC(C)=O)[C@@H]2OC(C)=O)C1(C)C the results were VDR inh -10%.
CN(C)S(=O)(=O)c1cccc(C(=O)NCC(C)(C)CNC(=O)c2cccc(S(=O)(=O)N(C)C)c2)c1 was read as VDR inh 0%.
O=C(Cc1ccccc1)Nc1ncnc2c1C(c1ccccc1)c1c(ccc3ccccc13)O2 (stereo not drawn) was read as VDR inh -1%.
Screening COC(=O)C1=C(C)N(C)C(=O)NC1c1ccccc1 (stereo not drawn) returned VDR inh -11%.
O=C(N/N=C/CCc1ccccc1)C1CCCCC1 was read as VDR inh -7%.
COC(=O)CC1C(=O)NCCN1C(=S)Nc1cccc(C(F)(F)F)c1 (stereo not drawn) was read as VDR inh 2%.
`FC(F)(F)c1ccc(N2CCN(c3ncnc4c3nnn4Cc3ccccc3)CC2)nc1` gave VDR inh 11%.
For COc1ccc(C(=O)NC(C)c2csc(C)n2)cc1OC1CCN(C(C)=O)CC1 (stereo not drawn) the results were VDR inh 4%.
CCN(CC)CCCNC(=O)CSc1c2c(nc3cc(Cl)ccc13)CCCC2 was read as VDR inh inconclusive.
`O=C(COC(=O)c1cc(S(=O)(=O)N2CCCC2)ccc1O)NCc1ccccc1` gave VDR inh -18%.
Cc1cc(C)c(C)c(OCCCN(C)C)c1 was read as VDR inh -15%.
`Cc1cc(NC(=O)CCCN2C(=O)c3cccc4cccc(c34)C2=O)no1` gave VDR inh -20%.
Screening COc1ccc(NC(=O)CSC2=Nc3ccccc3C3=NC(CC(=O)NCc4ccc5c(c4)OCO5)C(=O)N23)cc1 (stereo not drawn) returned VDR inh -9%.
